Assay outcomes (PubChem)
miR-21 FLuc = miR-21 reporter, rising signal. Potency, µM (titrated, usually from 38.3 µM), inactives show top-dose reporter change, positive = more light. AID 2288. HeLa miR-21 FLuc reporter, luciferase, 48 h. 340,000 tested, under 10 active; active = well fitted rising curve with a large enough effect; inconclusive = small, poorly fitted or top-dose-only effect; inactive = no such curve, though single readings can be large or run the other way;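 further: % of control where 0% means no effect; miR-21 action dims this reporter so a rising signal means less miR-21 action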
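Using DMEM plus 10% FBS, HeLa miR-21-FLuc cells are incubated with test compounds (final up to about 40uM) for 48 hours; firefly luciferase signal is then imaged following reagent-mediated lysis.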
Rango release inh = inhibitors of RanGTP-induced Rango-importin beta complex dissociation; O95149+P62826; Biochemical FRET Rango-importin beta, RanGTP-induced dissociation; Potency, µM (highest dose often 46.1 µM), for the others: at the top dose activity change, negative = inhibition; 340,000 compounds, 0.071% hits; active means falling FRET ratio curve, often poorly fitted, with flat reads before Ran was added; inconclusive means other falling curves, or compound fluorescence or quenching; inactive means flat or rising ratio curve;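 further: potency means the concentration at half of the fitted maximal effect; % of control where 0% means no effect; nearly all actives have a fitted effect of over 45% in size; -100% = wells without RanGTP and RCC1; the record marks most hits as doubtful in a second field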
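Compounds sat 5 min at room temperature with 0.1 uM Rango biosensor plus 0.25 uM importin beta, then FRET pre-read. RanGTP-RCC1 (0.6 uM Ran, 2mM GTP, 0.2 uM RCC1) added for 45 min, and the CFP/YFP post-read measured blocked complex dissociation.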
Rango complex inh = prevents formation of the Rango-importin beta complex. Q14974. Rango CFP/YFP FRET sensor + importin beta, 45 min. Potency, µM (top dose mostly 92.2 µM), without a hit: at the highest dose inhibition of complex formation. 340,000 compounds, 0.031% hits. AID 540263; active = rising FRET ratio curve, often small or poorly fitted; inconclusive = mostly compound fluorescence or quenching in the first reads; inactive = flat curves in all reads;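 further: potency means the concentration at half of the fitted maximal effect; 0% = DMSO wells and 100% = buffer wells lacking importin beta; nearly all actives have a fitted effect of over 15% in size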
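FRET biosensor (snurportin 1 IBB flanked by EYFP and cerulean), 50 nM, with compound 5 min, then 0.125 microM importin beta in PBS, 1 mM DTT, 0.02% Tween-20, 0.1% BSA. CFP/YFP ratio read after 45 min at room temperature; pre-read flags interference.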
GLA inh pH 4.5 = inhibitors of human alpha-galactosidase A at pH 4.5 | activity change, negative = inhibition, % at 105 µM | P06280 | 230,000 tested, under 10 active | purified enzyme, 4-MU-alpha-Gal fluorescence, pH 4.5; inconclusive = small, poorly fitted or top-dose-only inhibition, or a rising curve; inactive = flat fitted curve, though single readings scatter; no compound was filed as active;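 further: 0% = full activity with enzyme and -100% = basal without enzyme; dose as in the result columns while the protocol names 77 µM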
Target sequence (P06280 whole entry, looked up): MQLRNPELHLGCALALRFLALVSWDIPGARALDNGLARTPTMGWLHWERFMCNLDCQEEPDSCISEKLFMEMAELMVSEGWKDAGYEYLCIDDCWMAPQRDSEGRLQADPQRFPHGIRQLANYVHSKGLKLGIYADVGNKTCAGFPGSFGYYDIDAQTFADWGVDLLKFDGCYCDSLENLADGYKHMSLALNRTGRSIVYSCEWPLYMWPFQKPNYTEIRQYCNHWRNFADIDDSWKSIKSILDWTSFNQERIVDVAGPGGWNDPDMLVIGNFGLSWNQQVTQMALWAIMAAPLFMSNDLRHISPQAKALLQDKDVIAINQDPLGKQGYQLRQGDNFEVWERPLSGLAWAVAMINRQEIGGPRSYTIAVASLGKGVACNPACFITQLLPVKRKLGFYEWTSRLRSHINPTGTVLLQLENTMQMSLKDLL
Numbers without * were called inactive; ? = inconclusive; / = no result given; & = joins results of further samples; [ ] = dose if it differs, or a comment. These rows are one share of the data, so the mix of outcomes need not match the whole.

SMILES	miR-21 FLuc	Rango release inh	Rango complex inh	GLA inh pH 4.5
CSc1nc(Oc2ccc(Cl)cc2)c2sccc2n1	-10%	15%	-3.5%	-5
O=C1c2ccccc2C(=O)N1CCN1CCc2ccccc21	-47%	-13%	-2.3%	2
CC(OCCN(C)C)C(=O)C12CC3CC(CC(C3)C1)C2 (centres undefined)	-5%	4%	0.4%	3
COc1cc(C(C)=O)ccc1OCC(O)CNCC(O)c1ccccc1 (centres undefined)	-6%	-13%	-1.6%	/
COC(=O)c1ccc(Sc2ccccn2)c([N+](=O)[O-])c1	-2%	-14%	6.0%	2
CCOCCCn1c(SCC(=O)Nc2ccccc2)nc2ccccc2c1=O	13%	0%	-6.2%	/
O=[N+]([O-])c1ccc(NCCN2CCOCC2)c([N+](=O)[O-])c1	-10%	1%	3.1%	/
CN(CCc1ccccn1)c1ccccc1	/	25%	5.0%	/
COc1ccc(Cl)cc1C=CC=Nc1ccc(S(N)(=O)=O)cc1	/	3%	-2.3%	/
CC(C)(C)CNC(=O)[C@]1(C)CCC[C@@]2(C)C3CC[C@@]4(C)C[C@]3(CCC21)CC4=O (some centres undefined)	/	25%	0.9%	/
CC(=O)OC[C@H]1O[C@H](C/C=N/OC[C@@H](O)[C@H]2O[C@@H]3OC(C)(C)O[C@@H]3[C@H]2O)C=C[C@@H]1OC(C)=O	-1%	/	/	-2
CC(OC(=O)CNS(=O)(=O)c1ccc(C#N)cc1)C(=O)Nc1cccc(C#N)c1 (centres undefined)	/	19%	-0.4%	/
O=C(CSc1nc2ccccc2c(=O)n1-c1ccccc1F)Nc1ccc2c(c1)CCC2	-15%	11%	-4.4%	-10
COc1ccc(N(C)C(=O)C2CCN(S(=O)(=O)c3cccc4nonc34)CC2)cc1	0%	-3%	-2.3%	/
CCOC(=O)N1CCc2c(sc3ncn(C)c(=O)c23)C1	-10%	-11%	0.7%	-29
N#CC1(NC(=O)COc2cc(F)ccc2[N+](=O)[O-])CCCCC1	/	-5%	-3.3%	/
COc1ccc(CC(=O)NNS(=O)(=O)c2ccccc2)cc1OC	0%	-4%	-6.8%	7
O=S(=O)(c1cc(-c2nc3ccccc3s2)ccc1Cl)N1CCOCC1	-1%	/	/	3
O=S(Cc1ccc(Cl)cc1)CC(O)COc1ccc(Cl)cc1 (centres undefined)	-8%	11%	0.1%	11
Cc1ccc(-c2ccc(SCC(=O)Nc3ccc4c(c3)OCCO4)nn2)cc1	-37%	4%	-2.4%	-8
C=CCNC(=O)/C(C#N)=C/c1c(N2CCN(c3ccc(OC)cc3)CC2)nc2c(C)cccn2c1=O	-9%	-2%	1.5%	/
Cc1nc([N+](=O)[O-])c(Br)n1CC(=O)c1cccc([N+](=O)[O-])c1	?	-16%	0.3%	6
CCC1Sc2ccccc2N(CC(=O)NC2CCCC2)C1=O (centres undefined)	-9%	15%	2.1%	-7
CC(=O)N1N=C(N)SC1(C)C	-1%	-23%	-4.5%	-4[21.1 µM]
Cc1ccc(NC(=S)N/N=C/c2ccc([N+](=O)[O-])s2)cc1	20%	-14%	0.0%	-5
Next part
SMILES	miR-21 FLuc	Rango release inh	Rango complex inh	GLA inh pH 4.5
CC(C)(C)NC(=O)C(c1ccc(F)cc1)N(CC1CCCO1)C(=O)c1csnn1 (centres undefined)	-1%	2%	1.4%	/
CC(C)(C)C1CCc2onc(C(=O)Nc3ccc4c(c3)OCO4)c2C1 (centres undefined)	-8%	-14%	3.7%	/
COc1ccc(CCOC(=O)c2ccc(NC(=O)CC#N)cc2)cc1	-12%	-9%	?	/
Cc1cc(Cl)c(C)c(S(=O)(=O)Oc2ccccc2NC(=O)CCC(=O)O)c1Cl	/	6%	-0.9%	/
CC1(C(=O)N(c2ccccc2)C(C(=O)NC2CCCC2)c2ccccn2)CC(=O)N=C2C=CC=CN21 (centres undefined)	2%	-5%	-1.2%	17
O=C(CSc1ccc(Cl)cc1)N1CCN(c2ccc([N+](=O)[O-])cc2Cl)CC1	9%	-12%	0.5%	-4
CCOc1ccc(NC(=O)CN(C)C(=O)CCCc2c[nH]c3ccccc23)cc1OCC	/	0%	-3.6%	/
O=C(COc1cccc(Cl)c1)Nc1ccccc1N1CCCCC1	/	3%	-1.6%	/
COc1ccc(CCNC(=O)/C=C/c2ccco2)cc1	-11%	-22%	-1.8%	/
O=C(OCC(=O)C12CC3CC(CC(C3)C1)C2)c1ccc(O)cc1	/	8%	4.2%	/
Cc1ccc(C(=O)/C=C/c2c(C)nn(-c3ccccc3)c2Cl)cc1	-22%	-5%	2.0%	-2
Cc1csc(=O)n1CCC(=O)OCC(=O)c1c(N)n(CC(C)C)c(=O)n(C)c1=O	/	26%	5.2%	/
COc1ccc(COC(=O)c2ccc(Cl)c(S(=O)(=O)N3CCOCC3)c2)cc1F	2%	-1%	2.3%	/
Clc1ccc(CN2CCSCC2)c(Cl)c1	5%	-2%	8.9%	/
Cc1cccc(C)c1NC(=O)CNCC(=O)N(C)C	0%	-1%	-1.1%	-3
O=C(Nc1cccc(C(=O)N2CCOCC2)c1)NC1CCCCC1	-7%	-10%	11%	3
CC(C)c1cc(C(=O)N/N=C/c2cccnc2)cs1	-34%	-7%	-0.3%	-10
N#CC1CN(Cc2ccccc2)CN(Cc2ccccc2)C1	2%	7%	-0.8%	-5
C=CCOC(=O)CCP(=O)(CCC(=O)OCC=C)c1ccccc1	1%	1%	-2.2%	-3
COc1ccc(Cn2ccnc2SCC(=O)Nc2nnc(C)s2)cc1	-2%&-1%	0%	-4.1%	/
CCCCn1c2c(c3ccccc31)CCc1nonc1-2	-15%	-11%	0.3%	2
COc1ccccc1NS(=O)(=O)c1ccc(OC)c([N+](=O)[O-])c1	-8%	2%	-2.4%	5
O=c1c2ccccc2oc2c1oc1ccccc12	/	1%	-1.0%	/
Cc1cccc(Oc2nc3c(c(=O)n(C)c(=O)n3C)n2C)c1	6%&6%	-8%	-2.3%	2
CCCOC(c1ccccc1)(c1ccc(C(F)(F)F)cc1)C(Oc1nc(C)cc(C)n1)C(=O)O (centres undefined)	25%	20%	5.2%	/
Going on with the list:
SMILES	miR-21 FLuc	Rango release inh	Rango complex inh	GLA inh pH 4.5
O=C(COc1ccccc1)Nc1ccc(S(=O)(=O)N2CCCCCC2)cc1	-3%	-14%	?	-6
CC(C)CN1C(=O)C(=O)N(CC(=O)NC2CCCc3ccccc32)C1=O (centres undefined)	0%	-20%	-1.8%	-7
CCc1cn(C2CC(O)C(CO)O2)c(=O)[nH]c1=O (centres undefined)	/	12%	-1.1%	/
CNC(=O)NCCN1CCCC1=O	0%	1%	0.2%	-3
COc1cc(C)nc(OCCNC(=O)COc2ccc(Cl)cc2C)n1	-11%	?	0.3%	-1
C=C(C)CSc1nnc(-c2cc(OC)c(OC)c(OC)c2)n1N	-2%	10%	3.1%	13
CCOC(=O)c1oc2ccccc2c1CSc1nnnn1-c1ccc(C)cc1	-4%	8%	4.8%	-1
CN(C(=S)NC(=O)C1CC1)c1ccc(O)cc1	/	?	-0.9%	/
N#Cc1cc(N)ccc1-n1cccc1	-4%	0%	4.5%	6
Nc1ccc(NC(=O)c2cccc(C(=O)Nc3ccc(N)cc3Cl)c2)c(Cl)c1	17%&-5%	-13%	1.0%	/
COc1ccc(-c2nc(Cc3ccc(Cl)cc3)no2)cc1OC	-4%	-13%	1.6%	2
COc1ccc(CNCCc2ccc([N+](=O)[O-])cc2)c(OC)c1OC	-3%	4%	6.4%	/
O=C1N(c2ccccc2C(F)(F)F)OC1(Cc1ccccc1)c1ccccc1 (centres undefined)	/	12%	3.8%	/
C=CCn1cc(C(=O)N2CCN(C)CC2)c(=O)c2cc(S(=O)(=O)N3CCCC3)ccc21	1%	-27%	-1.5%	6
COC(=O)c1ccc(N2OC3(C)C=CC2CC3)cc1 (centres undefined)	-65%	3%	0.9%	3
Cc1noc(C)c1COc1ccc(C(=O)OCC(=O)NCCN2C(=O)CSC2=O)cc1	4%	2%	10%	-4
COc1cc(SC)ccc1C(=O)N1CC(C)OC(C)C1 (centres undefined)	-6%	-2%	-0.2%	5
O=[N+]([O-])c1ccc(O)c2ncccc12	?	13%	?	5
CC1CCN(S(=O)(=O)c2ccc(NC(=O)[C@@H]3CCCN3C(=O)c3cccs3)cc2)CC1	/	19%	2.1%	/
O=C(C1CC1)N1CCC(c2nc(-c3ccc(S(=O)(=O)N4CCCC4)cc3)no2)CC1	15%	2%	-5.3%	6
CCC(CC)NC(=O)c1ccc2nc[nH]c2c1	-3%	-19%	2.0%	3
CS(=O)(=O)N(CC(=O)N1CCCCCC1)c1cccc([N+](=O)[O-])c1	-6%	3%	1.6%	/
COc1ccc(CN2CCC(Oc3cc(C(=O)NC4CC4)ccc3OC)CC2)c(O)c1	-6%	2%	-4.5%	/
O=C(O)c1ccccc1NC(=O)c1ccccc1Nc1ccccc1	19%	-7%	1.6%	/
O=C(CSc1nnc(-c2ccccc2O)o1)Oc1ccc(Br)cc1	-3%	2%	?	8
Continuation:
SMILES	miR-21 FLuc	Rango release inh	Rango complex inh	GLA inh pH 4.5
O=C(O)c1ccccc1-c1nc2cc(Cl)ccc2c(=O)n1O	1%	2%	0.9%	-1
COc1ccc(OC)c(NC(=O)c2cn(C)c(=O)c3cc(OC)c(OC)cc23)c1	-5%	-10%	-2.4%	2
O=C1c2ccccc2C(=O)N1CN(C(=O)COc1ccccc1)c1ccccc1	-7%	19%	0.7%	-1
COc1cc(C(=O)N2CCCN(c3nc4cc(C)ccc4cc3C#N)CC2)cc(OC)c1OC	-6%	?	?	5
CCCn1c(C(CO)Nc2nc(C)cs2)nc2ccccc21 (centres undefined)	0%	-12%	-4.3%	/
Nc1nc2ncc(C(=O)c3cc(F)ccc3O)cc2s1	-5%	-15%	-3.2%	-1
O=C1c2cccnc2C(Nc2ccc(F)c(Cl)c2)N1Cc1cccs1 (centres undefined)	-3%	3%	1.9%	-5
CC(C)OC(=O)CSc1nnc(COc2ccc([N+](=O)[O-])cc2)n1C	3%	1%	3.7%	0
OC(CC#CCN1CCOCC1)(c1ccccc1)c1ccccc1	4%	6%	1.2%	/
COc1ccc(N(C(=O)c2cnccn2)C(C(=O)NC2CCCCC2)c2ccc(Cl)cc2)cc1 (centres undefined)	/	2%	-4.1%	/
CC(C)(C)C1CCC(OCC(O)CN2CCN(c3ccccn3)CC2)CC1 (centres undefined)	10%	9%	-2.4%	-13
O=C(O)Cn1c(=O)n(Cc2ccccc2)c2ccccc21	-5%	31%	4.8%	/
COc1ccc(C(=O)NCC(=O)OCc2ccc(F)cc2)cc1	-2%	-15%	6.2%	4
Cc1ccccc1Oc1cc(NC(=O)Cn2cnc([N+](=O)[O-])c2)cc([N+](=O)[O-])c1	11%	17%	-4.0%	-14
O=C(O)C1CC=CCC1C(=O)Nc1ccccc1C(=O)N1CCN(c2ccc(Cl)cc2)CC1 (centres undefined)	-2%	1%	?	4
Cc1ccc(OC(C)C(=O)Nc2ccc(S(=O)(=O)N3CCOCC3)cc2)cc1 (centres undefined)	0%	-17%	0.7%	/
CC(=O)Nc1ccc(NC(=O)C2CCCN2C(=O)Nc2cccc(F)c2)cc1 (centres undefined)	0%	10%	-2.0%	/
COC(=O)c1[nH]c2cc(OC)ccc2c1NC(=O)c1c(F)cccc1F	-27%	-12%	2.1%	15
CCOC(=O)N1CCN(C(=O)COc2cccc3c2CCN(Cc2cccc(C)c2)C3=O)CC1	10%	0%	-0.5%	-6

5 compounds already listed, ordered by the value under Rango complex inh, lowest first:
SMILES	miR-21 FLuc	Rango release inh	Rango complex inh	GLA inh pH 4.5
CCCn1c(C(CO)Nc2nc(C)cs2)nc2ccccc21 (centres undefined)	0%	-12%	-4.3%	/
O=C(O)c1ccccc1-c1nc2cc(Cl)ccc2c(=O)n1O	1%	2%	0.9%	-1
CC(C)OC(=O)CSc1nnc(COc2ccc([N+](=O)[O-])cc2)n1C	3%	1%	3.7%	0
O=C(O)Cn1c(=O)n(Cc2ccccc2)c2ccccc21	-5%	31%	4.8%	/
COc1ccc(C(=O)NCC(=O)OCc2ccc(F)cc2)cc1	-2%	-15%	6.2%	4
